# Sa ugtP lethal: compounds lethal to S. aureus RN4220 ugtP deletion mutant; OD600 growth, 16 h; some inactives read as strong as hits; growth inhibition, % (no concentration beside the values); 330,000 compounds, 0.54% hits;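 active = z-score under -3 and OD600 up to 0.15 on both plates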;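 note: plate controls were untreated wells for no effect and antibiotic for full effect; wells of about 80 µL received 100 nL stock; the first replicate is given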
# Autofluor counter: counter-screen for toxin protease inhibitors: compound fluorescence. fluorescence intensity (concentration not given with the values). 360,000 compounds, 3.1% hits. compound autofluorescence counterscreen, microsphere flow cytometry; active compounds read high;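 active = at least 3 SD above the mean of all compounds, about 16000 in these data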;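 note: 100 nL of 1 mM stock went into each well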
# RN4220 kill: S. aureus RN4220 growth inhibition. inhibition, % (no concentration beside the values). AID 1259311. OD600, 16 h. 330,000 compounds, 0.33% hits;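 active = z-score of -3 or lower and OD600 up to 0.18 on both plates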;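 note: plate controls were untreated cells for no effect and reference antibiotic for full effect; stock transfer was 100 nL into about 80 µL; one replicate is shown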
# Mtb hypoxia inh: inhibitors of hypoxia-regulated fluorescent reporter in Mycobacterium tuberculosis; M. tuberculosis hypoxia-regulated fluorescent reporter, fluorescence; fluorescence inhibition, % (no concentration beside the values); 300,000 compounds, 0.1% hits; AID 1159583;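 active = 35 to 45% if threefold the growth effect, above 45% if 1.5-fold the growth effect; inactive = the rest, general growth blockers included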;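 note: wells of about 50 µL received 100 nL stock; 0% = vehicle wells and 100% = reference inhibitor wells; whole bacteria with a GFP reporter of the hypoxia response; strong numbers were not always called active; many hits fall short of the cut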
# PrP 5UTR inh: inhibition of PrP 5' UTR reporter expression; inhibition, % (concentration not given with the values); cell-based PrP 5' UTR mRNA reporter, plate reader; 340,000 compounds, 0.35% hits; AID 488862;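 active = every replicate at 50% or more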;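 note: 0 = median of the neutral control wells; tested in H4 reporter cells; numbers are from one replicate; inactives centre near -14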
# BJeLR lethal: kills HRASV12-expressing BJeLR cells; BJeLR (HRASV12) viability, CellTiter-Glo ATP luminescence, 48 h; reference of the scale not given here; inhibition, % (concentration not given with the values); 300,000 compounds, 0.17% hits; AID 1554;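 active = replicate mean above 50%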;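 note: 50 nL library stock added to about 25 µL; numbers are from one replicate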
# Mtb hypoxia inh growth: second read-out of Mtb hypoxia inh, no call of its own (marks repeat the call); growth inhibition, %; measured here: M. tuberculosis growth (absorbance);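 0% = vehicle and 100% = reference antibiotic; read after six days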
# The depositor's hits bear a star; . = not tested or not shown.
SMILES,Sa ugtP lethal,Autofluor counter,RN4220 kill,Mtb hypoxia inh,Mtb hypoxia inh growth,PrP 5UTR inh,BJeLR lethal
CCN(C(=O)c1cc2c(=O)[nH]c3ccc(C)cc3c2s1)c1ccc(F)cc1,6,4066,11,3,-2,-14,0
O=C(NC(=O)c1ccccc1O)c1ccc(C(F)(F)F)cc1,25,4257,31,10,-3,.,6
Cc1ccsc1C(=O)Nc1ccc(C(=O)O)cc1,-2,2377,4.0,11,6,-28,.
O=C(NC(Cc1ccccc1)C(=O)O)/C(=C\c1ccccc1)NC(=O)c1ccco1 (stereo not drawn),19,3661,3.4,2,8,-28,-10
CCOc1ccc2nc(NCCCNS(=O)(=O)c3ccc(F)cc3)c(C#N)cc2c1,-12,8433,-3.0,-9,6,1,-12
O=C(/C=C/c1ccco1)Nc1ccc2nn(-c3ccccc3)nc2c1,-8,11506,-6.4,-1,4,-30,-1
CN(C)S(=O)(=O)c1cc(NC(=O)CN2CCCc3ccccc32)ccc1Cl,-5,3754,-0.5,-6,5,-9,-11
O=C(O)CNC(=S)N(Cc1ccccc1Cl)C1CCCCC1,9,4357,18,17,1,-4,2
COc1ccc(CC(=O)NCc2ccc(Cl)cc2)cc1S(=O)(=O)N1CCOCC1,-3,5080,4.9,6,-6,-13,.
OC(COc1ccccc1)CN1CCC(Cc2ccccc2)CC1 (stereo not drawn),-2,.,-1.7,1,-5,-13,1
Cn1c(=O)cc(OCC(=O)N2CCN(Cc3ccc4c(c3)OCO4)CC2)c2ccccc21,-9,5366,7.1,3,13,-21,2
CCn1c(C(=O)OC)cc2c1ccn2-c1ccc(F)cc1,10,3320,32,-4,-3,-67,5
Cc1cc2c(=O)n(CC(=O)NCC(=O)N3CCN(Cc4ccccc4)CC3)cnc2s1,8,2342,-3.0,.,.,-27,-2
CC1CCCC(C)N1C(=O)COC(=O)CNC(=O)c1sc2ccccc2c1Cl (stereo not drawn),-1,.,0.6,-9,-2,-33,8
O=C(CCSc1ccc(Cl)cc1)N1CCCCCC1,0,2479,6.9,18,21,-47,-7
S=C(c1ccc(Br)cc1)N1CCN(Cc2ccccc2)CC1,12,9344,-1.8,6,9,.,-11
CSCc1cc(N(C)c2ccccc2)nc(-c2ccccn2)n1,.,3565,.,.,.,-5,3
O=[N+]([O-])[N-][n+]1cnn(Cc2ccc(Cl)cc2)c1,2,4470,0.6,4,-2,-16,5
CCCC(=O)Nn1cnc2c(c1=O)C1(CCCCC1)Cc1ccccc1-2,14,3879,-1.9,.,.,-10,0
FC(F)(F)c1cccc(NC(=S)NCc2ccccn2)c1,0,2389,3.1,7,5,-4,7
CCC1=C2CC[C@H]3C(=O)N(CC(=O)OC)C(=O)[C@H]3[C@H]2[C@@]2(C)C(=NCC(=O)OC)OC(=O)N2C1=O,.,4755,.,.,.,-12,0
CCc1ccc(NC(=O)CN(c2ccc3c(c2)OCO3)S(=O)(=O)c2c(C)noc2C)cc1,6,5369,0.7,.,.,-13,6
FC(F)(F)COc1nc(N/N=C/c2cccnc2)nc(N2CCCCC2c2ccccn2)n1 (stereo not drawn),.,3171,.,.,.,-12,-14
COc1ccc2c(c1)[nH]c1c(Cl)ncnc12,.,2606,.,.,.,-18,6
CCC1CCCCN1C(=S)Nc1cccc(S(=O)(=O)N(C)C)c1 (stereo not drawn),3,3205,12,11,2,-8,-2
Cn1cccc1/C=N/N1CCN(c2ccccn2)CC1,.,2568,.,.,.,-39,5
COc1ccc(C)cc1S(=O)(=O)N(C)CC(=O)N1CCN(C)CC1,-1,8937,2.1,-9,4,-1,-2
COc1ccc(-c2cc(C(F)(F)F)nc(SCC(=O)N3CC(C)OC(C)C3)n2)cc1OC (stereo not drawn),-5,.,-13,1,5,-12,5
O=C(NN=Cc1ccncc1)c1nc2ccccc2c(=O)[nH]1,2,.,-0.2,8,6,.,.
CN(CC#CCC(c1ccccc1)c1ccccc1)C(C)(C)C,16,13261,5.4,5,10,-21,4
C(#CCN1CCOCC1)COC/C=C/c1ccccc1,-5,3394,-11,3,9,0,2
CCOC(=O)C1=C(C)NC(=O)C1(NC(=O)c1cccnc1)C(F)(F)F (stereo not drawn),-1,8092,1.7,1,-2,-18,7
CC(C)Cn1c(CN2CCN(C(=O)c3ccco3)CC2)nc2c1c(=O)n(C)c(=O)n2C,3,3835,1.6,6,0,-24,0
COCCNC(=O)c1c(CSc2ccc(Cl)cc2)noc1C(=O)NCc1ccccc1,-5,3431,2.1,7,14,-11,-5
COc1ccc(NC(=O)c2sc3nc(C)nc(N4CCN(c5ccccn5)CC4)c3c2C)c(OC)c1,12,4518,5.1,-2,8,-1,-12
NC(=O)CC(NC(=O)c1ccccc1)c1ccc(NCCc2cccc(F)c2)c([N+](=O)[O-])c1 (stereo not drawn),5,3987,8.6,21,10,-22,5
CCOC(=O)C1CCN(C(=O)Nc2ccc(OC)c(OC)c2)CC1,0,14675,0.6,5,4,-22,-3
COc1ccc(C(=O)NNC(=O)CSc2nnc(COc3ccccc3)n2C)cc1,8,16210*,3.5,-1,2,-14,-12
COc1ccccc1/C=C/C(=O)c1ccc(NC(C)=O)cc1,2,7022,8.0,11,9,-47,-3
CCc1cc2c(SCC(=O)c3cccs3)ncnc2s1,10,4213,9.3,8,9,-29,-19
CC(=O)N1CCCC(C(=O)c2ccc3c4c(cccc24)CC3)C1 (stereo not drawn),2,2190,8.2,14,6,-26,1
N#C/C(=C\c1cccc([N+](=O)[O-])c1)C(=O)NCc1cccnc1,-1,2572,-2.9,1,9,-3,-3
CC(=O)N(CCC1(C(C)C)CCOC(C)(C)C1)C(C)c1cccs1 (stereo not drawn),3,4795,9.4,1,-5,-34,-7
COc1ccc(NC(=O)COC(=O)CC2CCCC2)cc1,7,2869,4.0,7,2,-14,.
O=C(CCNC(=O)c1ccccc1Cl)NCCc1ccc(C(F)(F)F)cc1,2,3887,5.7,1,3,-16,5
CCOc1ccc(N(Cc2ccc(OC)cc2)C(=O)c2ccco2)cc1,.,2480,.,.,.,3,-5
COc1ccc(NC(=O)NNC(=O)c2cc(C3CC3)nc3ccccc23)c(OC)c1,-2,7487,-2.0,-4,-3,7,7
Cc1ccc(C(=O)NCCc2ccccn2)cc1S(=O)(=O)N1CCOCC1,5,.,3.0,13,4,.,2
CCOc1ccc(NC(=O)CCC(=O)NNC(=O)c2ccc(Br)o2)cc1,9,4134,1.6,4,-5,-18,-14
CCCCC=CC(NC(=O)CCc1ccccc1)c1ccccc1 (stereo not drawn),4,.,6.3,12,5,.,.
Cc1ccc(S(=O)(=O)N2CCN(C(=O)c3c(C)nn(-c4ccccc4)c3Cl)CC2)cc1,8,7906,-2.9,-8,-18,-5,-11
O=C(Nc1ccccc1N1CCCC1)C1CCN(C(=O)c2ccc(Cl)cc2)CC1,12,4626,5.4,3,-5,-7,-15
C=CCn1c(Cc2ccc(OCC)cc2)nnc1SCC(N)=O,-6,9473,-2.9,0,13,-13,8
Cc1cccc(OCc2nnc(SCC(=O)NC3CCCCC3)n2C)c1,-1,5136,-0.6,-6,11,-11,-6
Cc1nn(-c2ccccc2)c(C)c1NC(=O)COC(=O)CCCOc1ccccc1,8,5951,2.9,5,4,-17,2
CN(C)c1ccc(C=C2C(=O)OC(C)(C)OC2=O)cc1,-2,2397,-0.6,-4,-5,-1,-1
COC(=O)Cn1cc(C=NNC(=O)c2ccc(C#N)cc2F)c2ccccc21,8,.,-2.4,0,4,.,.
CCCc1nc2ccccc2c2nc(N)nn12,-2,6471,-3.0,-2,-4,-24,-1
COc1ccc(C(=O)/C=C/C(=O)N(CC(=O)NC2CCCCC2)Cc2ccccc2)c(O)c1,18,4224,4.7,9,7,0,22
COc1cc(Nc2cc(C)nc3nc(C)nn23)cc(OC)c1OC,13,5504,1.3,.,.,-25,-5

# Continuation:
SMILES,Sa ugtP lethal,Autofluor counter,RN4220 kill,Mtb hypoxia inh,Mtb hypoxia inh growth,PrP 5UTR inh,BJeLR lethal
CCCOC(=O)c1ccc(NC(=O)Oc2ccccc2)cc1,8,7688,3.3,7,2,-4,-10
CC(C(=O)O)n1c(C(F)(F)F)nc2ccccc21 (stereo not drawn),2,2936,1.6,.,.,-9,1
COc1ccc(-c2cnc3ncnn3c2N)cc1,9,2477,6.1,-4,4,-2,1
CCOC(=O)c1cccc(NC(=O)c2c(NCc3ccccc3)[nH]c(=O)[nH]c2=O)c1,25,3696,16,18,10,4,-10
CCOC(=O)N1CCN(Cc2ccc3c(c2)OCO3)CC1,11,3324,6.1,16,9,-43,6
Cc1ccc(NS(=O)(=O)c2csc(C(N)=O)c2)c(C)c1,3,3599,2.9,9,4,-25,-1
COc1ccc(/C=N/NC(=O)CN(c2ccc(OC)cc2)S(=O)(=O)c2ccccc2)cc1,.,3318,.,.,.,0,-6
Cc1sc(NC(=O)c2ccco2)c(CN2CCC(C)CC2)c1C,9,4136,-1.7,.,.,-24,3
O=C(NCCCN=C1NS(=O)(=O)c2ccccc21)c1ccc(S(=O)(=O)N2CCOCC2)cc1,6,7963,0.6,-2,2,-18,-16
Cc1cc(C)c(NC(=O)CCN2C(=O)c3ccccc3S2(=O)=O)c(C)c1,3,6125,2.4,-5,2,-10,6
CC(C)c1nc2ccc(C(=O)O)cc2[nH]1,13,8219,4.9,2,1,6,-17
CC(C)NC(=O)C1CCN(C(=O)c2ccc(-c3ccccc3)cc2)CC1,-2,3378,-1.9,5,12,-15,0
Cc1ccc2c(c1)NC(=O)C(CC(=O)NCCN(C)C)O2 (stereo not drawn),-2,6099,8.8,.,.,-12,-8
COC(=O)C1CSC(C(=O)OC)N1C(=O)Nc1ccc(Cl)c(Cl)c1 (stereo not drawn),10,2348,-3.7,.,.,-23,5
CCOC(=O)c1oc2ccc(S(=O)(=O)n3nc(-c4cc(OC)c(OC)c(OC)c4)cc3N)cc2c1C,7,4494,4.4,9,14,-26,-8
CC(C)(C)c1ccc(S(=O)(=O)N2CCCCC2C(=O)NCc2ccccn2)cc1 (stereo not drawn),13,6372,0.7,.,.,-41,3
O=C(CN(C(=O)c1nsc(Cl)c1Cl)c1cccc(F)c1)NC1CCCC1,4,4351,5.3,8,2,-3,-12
CC(C)(C)c1ccc(-c2ncccc2O)cc1,21,4653,5.8,5,-1,-37,.
O=C(COC(=O)c1ccc([N+](=O)[O-])cc1)NC1CCCC1,1,3321,-2.8,1,-7,-2,8
COc1cc(/C=N\NC(=O)CN2CCOCC2)ccc1OCC(=O)Nc1ccc(C)c(C)c1,.,2385,.,.,.,-15,0

# Reformatted with two lines to a compound: 4 of the compounds above.
# Screens in order: Sa ugtP lethal | Autofluor counter | RN4220 kill | Mtb hypoxia inh | Mtb hypoxia inh growth | PrP 5UTR inh | BJeLR lethal
CCCC(=O)Nn1cnc2c(c1=O)C1(CCCCC1)Cc1ccccc1-2
  14 | 3879 | -1.9 | . | . | -10 | 0
FC(F)(F)c1cccc(NC(=S)NCc2ccccn2)c1
  0 | 2389 | 3.1 | 7 | 5 | -4 | 7
CCC1=C2CC[C@H]3C(=O)N(CC(=O)OC)C(=O)[C@H]3[C@H]2[C@@]2(C)C(=NCC(=O)OC)OC(=O)N2C1=O
  . | 4755 | . | . | . | -12 | 0
CCc1ccc(NC(=O)CN(c2ccc3c(c2)OCO3)S(=O)(=O)c2c(C)noc2C)cc1
  6 | 5369 | 0.7 | . | . | -13 | 6

# Going on with the list.
SMILES,Sa ugtP lethal,Autofluor counter,RN4220 kill,Mtb hypoxia inh,Mtb hypoxia inh growth,PrP 5UTR inh,BJeLR lethal
Cc1noc(C)c1S(=O)(=O)Nc1ccc2c(c1)C(=O)N([C@H](C)CO)C[C@H](C)[C@@H](CN(C)C(=O)NC1CCCCC1)O2,16,3029,24,2,4,-9,.
COc1ccc(/C=N/Nc2nc(-c3ccc(Cl)cc3)cc(C(F)(F)F)n2)c(OC)c1,.,2367,.,.,.,5,-12
Nc1cc(C(F)(F)F)ccc1C(=O)O,.,5443,.,.,.,16,-7
CCOC(=O)CNC(=O)CN1CCC(c2nc3ccccc3[nH]2)CC1,-1,5646,2.6,5,0,-7,2
O=C(NCc1cccnc1)/C(=C/c1ccc(-c2cccc(C(F)(F)F)c2)o1)NC(=O)c1ccccc1,10,22544*,2.9,1,-5,-6,3
O=C(c1ccccc1F)N1CCN(c2ccc([N+](=O)[O-])c3cccnc23)CC1,17,4171,13,10,10,-19,4
COc1cccc(CN2C(=O)C(C)N(C(=O)c3ccccc3)c3ccccc32)c1 (stereo not drawn),6,4496,4.9,-9,-6,-11,18

# Screens as filed in PubChem BioAssay.
